High-throughput results as filed in PubChem BioAssay.
RanGTP-Impb inh = inhibitors of RanGTP-importin-beta interaction, primary screen, biochemical, FRET, CFP-Ran, YFP-importin-beta, homogeneous; cell-free CFP-Ran/YFP-importin-beta FRET ratio; hit rate 1.1% among 300,000; AID 2216; inhibition, % (test concentration not listed);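 active = most replicates above 15%; inconclusive = exactly half above 15%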;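 note: 0% = DMSO wells and 100% = Ran loaded with GDP instead of GTP; wells of about 40 µL received 100 nL stock; the first replicate is given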
Beta cell apopt = beta cell apoptosis inhibition | hit rate 0.8% among 300,000 | protection from apoptosis, % (test concentration not listed) | INS-1E cytokine-induced death, ATP luminescence, 48 h; percent of positive-control rescue, neutral wells zero | AID 435005;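 active = all replicates at 75% or more, or half of them and the mean; inconclusive = half reach 75% but not the mean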;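 note: 0% = cytokine-treated negative control wells and 100% = positive control rescue; higher means more ATP so stronger rescue from cytokine killing; wells of about 40 µL received 100 nL stock; the first replicate is given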
LANA-H2A inh = blocks KSHV LANA binding to histone H2A/H2B | cell-free LANA-H2A/H2B peptide, fluorescence polarization | inhibition, % (test concentration not listed) | hit rate 0.6% among 320,000 | AID 2629; in the data active = inhibition mostly above about 10%, no sharp cut-off; inactive = mostly below about 6.7%;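 note: stock transfer was 7.5 nL into about 10 µL; 0% = median of vehicle wells and 100% = median of positive control wells; one replicate is shown; the record names a cut of 25% in any replicate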
A1 inh = inhibitors of the anti-apoptotic protein A1, read as caspase activation. MEF A1-2A-BIM cells, Caspase-Glo 3/7 luminescence, 3 h; percent of clofoctol response, vehicle zero. caspase activation, % (no concentration beside the values). hit rate 0.066% among 330,000. AID 2462;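 active = over half of replicate activation scores above 10%, or exactly half above 10 with the replicate mean above 10; inconclusive = replicate mean below 10 yet half the replicates above 10; inactive = over half of replicates below 10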;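 note: wells of about 30 µL received 50 nL stock; many hits fall short of the cut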
Beta2AR agonist = activates human beta-2 adrenergic receptor causing internalization | hit rate 0.43% among 340,000 | Am2.2-beta2AR cells, FAP receptor internalization, flow cytometry; reference of the scale not given here | response, % (no concentration beside the values) | AID 504454 | P07550;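 active = response above a set limit, near 3 SD of response in nonfluorescent compounds, cut at about 42% in these data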;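 note: stock transfer was 100 nL into about 11 µL; a reference agonist was the positive control; negative values mostly stem from fluorescent compounds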
Target sequence (P07550 whole entry, looked up): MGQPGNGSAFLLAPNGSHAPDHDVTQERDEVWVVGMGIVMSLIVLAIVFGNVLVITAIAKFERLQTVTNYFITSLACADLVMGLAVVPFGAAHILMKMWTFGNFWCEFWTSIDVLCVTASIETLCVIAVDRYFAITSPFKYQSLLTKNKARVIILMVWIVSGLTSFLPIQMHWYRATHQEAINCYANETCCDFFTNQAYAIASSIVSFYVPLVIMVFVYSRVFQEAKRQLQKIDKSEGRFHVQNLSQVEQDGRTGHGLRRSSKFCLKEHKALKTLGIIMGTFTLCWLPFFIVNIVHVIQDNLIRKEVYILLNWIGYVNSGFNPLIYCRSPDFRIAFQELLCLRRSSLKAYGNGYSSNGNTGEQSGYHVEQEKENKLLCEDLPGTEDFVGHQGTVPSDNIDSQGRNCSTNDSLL
UCH37 DUB inh = blocks the human deubiquitinase UCH37; purified proteasome/UCH37, Ub-AMC cleavage fluorescence; Q9Y5K5; hit rate 0.33% among 330,000; inhibition, % (no concentration beside the values);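 active = mean of two replicates above 20%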;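 note: 0% = compound-free wells with enzyme and 100% = wells lacking proteasome; stock transfer was 100 nL into about 20 µL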
Target sequence (Q9Y5K5 whole entry, looked up): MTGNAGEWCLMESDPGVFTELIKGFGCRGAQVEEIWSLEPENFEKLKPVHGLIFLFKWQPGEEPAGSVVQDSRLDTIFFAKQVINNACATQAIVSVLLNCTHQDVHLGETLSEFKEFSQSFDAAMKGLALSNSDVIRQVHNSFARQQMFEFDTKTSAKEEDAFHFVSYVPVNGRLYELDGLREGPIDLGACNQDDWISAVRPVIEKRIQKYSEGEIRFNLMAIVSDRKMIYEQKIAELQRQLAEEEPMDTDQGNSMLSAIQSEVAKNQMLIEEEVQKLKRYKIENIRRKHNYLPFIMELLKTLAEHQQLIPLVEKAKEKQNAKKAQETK
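Material: Human UCH37 enzyme supplied as purified proteasome complex | Schedule: 30 min preincubation with enzyme, 25 min cleavage at room temperature | Detection: AMC fluorescence 355/460 nm | Measure: % inhibition of Ub-AMC cleavage fluorescence | Controls: Wells without proteasome as full block, compound-free enzyme plus substrate as uninhibited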
T cruzi repl = T. cruzi replication inhibition; inhibition, % (no concentration beside the values); hit rate 1.4% among 300,000; T. cruzi beta-gal in NIH3T3, luminescence, 90 h; AID 1885;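 active = mean inhibition across valid replicates above about 55%, limit read from the data; inconclusive = mean below that limit but half or more replicates reach it; inactive = mean below it, under half of replicates reach it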;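 note: signal also drops with host cell toxicity which is not excluded here; 0% = plate median of DMSO wells and 100% = zero luminescence signal; higher percent means less beta-gal luminescence so fewer parasites; stock transfer was 50 nL into about 50 µL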
Calb FLC = C. albicans growth modulation with fluconazole; C. albicans CaCi-2 (fluconazole-resistant clinical isolate) + fluconazole, Alamar Blue growth, 48 h; growth inhibition, % (concentration not given with the values); hit rate 0.57% among 300,000;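 active = most replicates above 75%; inconclusive = exactly half above 75%; inactive = most below 75%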;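 note: all wells also contain fluconazole at 8 µg/ml as a sub-toxic cotreatment; 0% = median of DMSO wells and 100% = median of geldanamycin control wells; wells of about 8 µL received 7.5 nL stock; the first replicate is given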
* = called active by the depositor.

For COc1ccc(NC(=O)c2ccccc2-c2ccccc2C(=O)O)cc1 the results were RanGTP-Impb inh 0.4, LANA-H2A inh -2.9, A1 inh 0.8, Beta2AR agonist -3, UCH37 DUB inh 4.1, T cruzi repl -17 and Calb FLC 9.
Screening Cn1c(N)c(C(=O)COC(=O)CCc2nc3ccccc3s2)c(=O)n(C)c1=O returned RanGTP-Impb inh 0.3, Beta cell apopt -6, LANA-H2A inh 4.2, A1 inh -0.2, Beta2AR agonist -7, UCH37 DUB inh 0.7, T cruzi repl 7 and Calb FLC 0.
CC1=CN2C(=N)/C(=C/c3ccco3)C(=O)N=C2S1 was read as RanGTP-Impb inh 6.7, Beta cell apopt 2, LANA-H2A inh 4.1, A1 inh -4.9, Beta2AR agonist -13, UCH37 DUB inh 10, T cruzi repl -10 and Calb FLC 1.
`Cc1cc(C(=O)N/N=C/C=C/c2cccc([N+](=O)[O-])c2)n[nH]1` gave RanGTP-Impb inh 4.8, Beta cell apopt 1, LANA-H2A inh 3.8, A1 inh 0.2, Beta2AR agonist -4, T cruzi repl 3 and Calb FLC 4.
Cc1ccccc1OCc1nc2ccccc2c(=O)n1/N=C/c1cn[nH]c1-c1ccc(Br)cc1 was read as RanGTP-Impb inh -1.0, Beta cell apopt 8, LANA-H2A inh -1.7, A1 inh -0.5, Beta2AR agonist 14, T cruzi repl 44 and Calb FLC 2.
For Cc1ccc(S(=O)(=O)CCC(=O)O)cc1C the results were RanGTP-Impb inh 5.7, Beta cell apopt -6, LANA-H2A inh -6.0, A1 inh 1.2, Beta2AR agonist 11, UCH37 DUB inh 1.8, T cruzi repl -21 and Calb FLC -1.
S=C(NC1CCCCC1)N1CCOCCOCCN(C(=S)NC2CCCCC2)CCOCCOCC1 was read as RanGTP-Impb inh -1.9, Beta cell apopt -1, LANA-H2A inh -4.4, A1 inh 0.5, Beta2AR agonist -5, UCH37 DUB inh 1.5, T cruzi repl -1 and Calb FLC 6.
`Cc1ccc(C)c(N2N=C(C(=O)NCCN3C(=O)S/C(=C\c4cccnc4)C3=O)CCC2=O)c1` gave RanGTP-Impb inh -2.6, Beta cell apopt -5, LANA-H2A inh -5.5, A1 inh inconclusive, Beta2AR agonist 4, UCH37 DUB inh 3.6, T cruzi repl -2 and Calb FLC 6.
OCC1(CCc2ccccc2)CCCN(C/C=C/c2ccccc2)C1 (stereo unspecified) was read as RanGTP-Impb inh -5.3, Beta cell apopt 3, LANA-H2A inh -1.8, A1 inh 0.0, Beta2AR agonist -2, UCH37 DUB inh 1.8, T cruzi repl 25 and Calb FLC -12.
Screening Cc1ccc2cc(CN(CCN3CCCC3)C(=O)Nc3ccc(F)cc3)c(=O)[nH]c2c1C returned RanGTP-Impb inh 0.5, Beta cell apopt -6, LANA-H2A inh -2.4, A1 inh 0.7, Beta2AR agonist 3, UCH37 DUB inh 5.4, T cruzi repl 27 and Calb FLC -6.
For Cc1nn(-c2ccc(C(=O)O)cc2)c(C)c1Oc1ccccc1O the results were RanGTP-Impb inh 1.5, Beta cell apopt -4, LANA-H2A inh 5.6, A1 inh 0.7, Beta2AR agonist -4, UCH37 DUB inh 5.3, T cruzi repl 1 and Calb FLC 3.
`CC(Oc1ccccc1)C(=O)Nc1ccc(S(=O)(=O)N2CCOCC2)cc1` (stereo unspecified) gave RanGTP-Impb inh 0.8, Beta cell apopt -9, LANA-H2A inh 0.9, A1 inh 0.9, Beta2AR agonist -8, UCH37 DUB inh 2.6, T cruzi repl 14 and Calb FLC -8.
O=S(=O)(c1ccc2c(c1)OCCO2)N1CCN(c2ncnc3sccc23)CC1 was read as RanGTP-Impb inh 1.6, Beta cell apopt 81*, LANA-H2A inh -5.8, A1 inh 0.1, Beta2AR agonist -8, UCH37 DUB inh 0.7, T cruzi repl -65 and Calb FLC inconclusive.
For N#Cc1ccc(C(=O)NCCCSc2ccccc2)cc1 the results were RanGTP-Impb inh 3.1, Beta cell apopt -3, LANA-H2A inh 0.0, A1 inh 0.3, Beta2AR agonist 5, UCH37 DUB inh 4.1, T cruzi repl -14 and Calb FLC 6.
`O=C(c1cnn(C(=O)c2cccc(S(=O)(=O)N3CCOCC3)c2)c1)c1cc(Cl)cc(Cl)c1O` gave RanGTP-Impb inh 5.8, Beta cell apopt 0, LANA-H2A inh -5.0, A1 inh 0.0, UCH37 DUB inh 2.7, T cruzi repl 1 and Calb FLC 4.
`O=C(CNS(=O)(=O)c1cccs1)Nc1ccc2c(c1)OCCO2` gave RanGTP-Impb inh 1.7, Beta cell apopt 1, LANA-H2A inh 2.9, A1 inh 0.3, Beta2AR agonist -4, UCH37 DUB inh 2.1, T cruzi repl -11 and Calb FLC 2.
Screening CCC(C)Oc1nc2c(c(=O)n(C)c(=O)n2C)n1C (stereo unspecified) returned RanGTP-Impb inh -1.1, Beta cell apopt 5, LANA-H2A inh -0.6, A1 inh 0.5, Beta2AR agonist -3, T cruzi repl -12 and Calb FLC 4.
Cc1ccccc1CSCCNC(=O)c1ccc(Cl)c(S(=O)(=O)N2CCOCC2)c1 was read as RanGTP-Impb inh 0.2, Beta cell apopt -2, LANA-H2A inh 2.0, A1 inh 0.0, Beta2AR agonist -8, UCH37 DUB inh 4.3, T cruzi repl 7 and Calb FLC 2.
For Cc1cc(C)c(NC(=O)C2CCCN2CCO)c(C)c1 (stereo unspecified) the results were RanGTP-Impb inh 1.3, LANA-H2A inh -2.3, A1 inh 0.7, Beta2AR agonist -2, UCH37 DUB inh 3.3, T cruzi repl -17 and Calb FLC 6.
`O=C(CSc1nc(-c2ccco2)cc(C(F)(F)F)n1)NCCCN1CCOCC1` gave RanGTP-Impb inh 1.4, Beta cell apopt 13, LANA-H2A inh -4.2, A1 inh -0.3, Beta2AR agonist -4, UCH37 DUB inh -1.6, T cruzi repl 3 and Calb FLC 3.
For CSc1nsc(SCC(=O)Nc2ccc(C(C)=O)cc2)n1 the results were RanGTP-Impb inh -4.2, Beta cell apopt 1, LANA-H2A inh -2.2, A1 inh -1.5, Beta2AR agonist -10, UCH37 DUB inh 4.8, T cruzi repl 5 and Calb FLC -16.
`COc1ccc(C(=O)N2CCSC2=S)cc1OC` gave RanGTP-Impb inh 3.1, Beta cell apopt -2, LANA-H2A inh -0.5, A1 inh -1.0, Beta2AR agonist 20, UCH37 DUB inh 1.8, T cruzi repl -1 and Calb FLC -7.
`CC1CCN(S(=O)(=O)c2ccc(C(=O)Nc3ccccc3-c3nc4ccccc4[nH]3)cc2)CC1` gave RanGTP-Impb inh 4.0, Beta cell apopt 11, LANA-H2A inh 3.4, A1 inh 0.1, Beta2AR agonist 6, UCH37 DUB inh -39, T cruzi repl 26 and Calb FLC -6.
`O=C1N=C(N2CCOCC2)CS1` gave RanGTP-Impb inh inconclusive, Beta cell apopt -1, LANA-H2A inh 7.3, A1 inh -0.2, Beta2AR agonist 1, UCH37 DUB inh 0.3, T cruzi repl 6 and Calb FLC 8.
`CCOC(=O)CCc1c(C)nc(SCCCn2c(=O)[nH]c3ccccc32)c(C#N)c1C` gave RanGTP-Impb inh 2.8, Beta cell apopt 7, LANA-H2A inh 4.8, A1 inh -0.5, Beta2AR agonist -1, UCH37 DUB inh -1.3, T cruzi repl 15 and Calb FLC 16.
O=C(NCCCn1ccnc1)c1ccc2c(c1)OCCO2 was read as RanGTP-Impb inh 5.0, Beta cell apopt -1, LANA-H2A inh 2.8, A1 inh 0.4, Beta2AR agonist -4, UCH37 DUB inh 0.9, T cruzi repl -8 and Calb FLC -7.
For COc1ccc(-c2cnnn2-c2ccc([N+](=O)[O-])cc2)cc1 the results were RanGTP-Impb inh 1.2, Beta cell apopt -1, LANA-H2A inh 7.1, A1 inh -1.2, Beta2AR agonist -4, UCH37 DUB inh 5.5, T cruzi repl 5 and Calb FLC -4.
For CN(C)/C=C/C(=O)c1cnc2sccn2c1=O the results were RanGTP-Impb inh 1.8, Beta cell apopt -8, LANA-H2A inh 2.6, A1 inh 0.6, Beta2AR agonist -4, UCH37 DUB inh 14, T cruzi repl -6 and Calb FLC -7.
CCC1C(=O)CC(c2ccco2)NC1c1ccco1 (stereo unspecified) was read as RanGTP-Impb inh -1.4, Beta cell apopt -7, LANA-H2A inh 3.5, A1 inh 0.2, Beta2AR agonist -1, UCH37 DUB inh 1.3, T cruzi repl 16 and Calb FLC -2.
Screening Cc1cccc(-n2ncc3c(N4CCC(C)CC4)ncnc32)c1 returned RanGTP-Impb inh 0.8, Beta cell apopt 4, LANA-H2A inh 1.1, A1 inh -2.3, Beta2AR agonist -4, UCH37 DUB inh 3.6, T cruzi repl 6 and Calb FLC -8.
COc1cc(CC(=O)Nc2ccc3nc(SC)sc3c2)cc(OC)c1OC was read as RanGTP-Impb inh -0.1, Beta cell apopt 0, LANA-H2A inh -0.6, A1 inh 0.2, Beta2AR agonist -9, UCH37 DUB inh 5.1, T cruzi repl 4 and Calb FLC 1.
`Cc1cccc(NC(=O)N(Cc2cc3cc(C)ccc3[nH]c2=O)CC2COCCO2)c1` (stereo unspecified) gave RanGTP-Impb inh 5.0, Beta cell apopt 5, LANA-H2A inh -4.9, A1 inh 0.7, Beta2AR agonist -5, UCH37 DUB inh 0.1, T cruzi repl 16 and Calb FLC 17.
For Cc1ccc(OC(C)C(=O)O)cc1C (stereo unspecified) the results were RanGTP-Impb inh -0.1, Beta cell apopt 0, LANA-H2A inh -1.0, A1 inh 0.2, Beta2AR agonist 3, UCH37 DUB inh 3.8, T cruzi repl -3 and Calb FLC 1.
COc1cccc(C(=O)Nc2cc(S(=O)(=O)N3CCCCC3)ccc2OC)c1 was read as RanGTP-Impb inh -2.7, Beta cell apopt -1, LANA-H2A inh 11, A1 inh -0.7, Beta2AR agonist -6, UCH37 DUB inh -0.6, T cruzi repl 13 and Calb FLC -34.
For CC(C)CNC(=O)COC(=O)c1ccccc1OCC(=O)Nc1ccc(Br)cc1 the results were RanGTP-Impb inh -1.8, Beta cell apopt 4, LANA-H2A inh -1.1, A1 inh 0.2, Beta2AR agonist 7, UCH37 DUB inh 1.4, T cruzi repl -6 and Calb FLC 3.
c1ccc(C2=Nn3c(nnc3-c3cc(-c4ccccc4)n[nH]3)SC2)cc1 was read as RanGTP-Impb inh 0.0, LANA-H2A inh 2.4, A1 inh -2.4, Beta2AR agonist 12, UCH37 DUB inh 3.3, T cruzi repl 26 and Calb FLC -1.
Screening O=C(c1ccc(Br)o1)N(Cc1ccccc1)Cc1ccccc1 returned RanGTP-Impb inh 0.9, Beta cell apopt -4, LANA-H2A inh -2.5, A1 inh -0.8, Beta2AR agonist 0, UCH37 DUB inh 0.7, T cruzi repl 2 and Calb FLC -7.
Screening CCOC(=O)C1=C(C)NC2=C(C1c1ccc([N+](=O)[O-])cc1)S(=O)(=O)c1ccccc12 (stereo unspecified) returned RanGTP-Impb inh 0.9, Beta cell apopt -5, LANA-H2A inh -0.9, A1 inh -1.1, Beta2AR agonist -2, UCH37 DUB inh 0.0, T cruzi repl 18 and Calb FLC -7.
For COc1ccc(NC(=O)C(C)N2CCN(C)CC2)cc1 (stereo unspecified) the results were RanGTP-Impb inh 1.1, Beta cell apopt -5, LANA-H2A inh -3.7, A1 inh -0.3, Beta2AR agonist -9, UCH37 DUB inh 6.3, T cruzi repl 11 and Calb FLC 19.
